Source: PubChem BioAssay
2A Renilla: Primary qHTS Assay for Foot and Mouth Disease Virus Antivirals against NCGC Sytravon and CBC Compound Libraries: Renilla Luciferase Signal; 120,000 compounds, 0.32% hits; HEK cells with a luciferase reporter of 2A StopGo recoding; Potency, µM (series often up to 57.5 µM), inactives show top-dose signal change, negative = less light; active means well fitted falling curve with a large enough effect; inconclusive means small, poorly fitted or top-dose-only effect; inactive means no such curve, though single readings can be large or run the other way; also: nearly all actives have a fitted effect of over 55% in size; overnight with compound
2A firefly: Primary qHTS Assay for Foot and Mouth Disease Virus Antivirals against NCGC Sytravon and CBC Compound Libraries: Firefly Luciferase Signal | HEK cells with a luciferase reporter of 2A StopGo recoding | Potency, µM (highest dose often 57.5 µM), for the others: top-dose signal change, negative = less light | 120,000 compounds, 0.23% hits; active = well fitted falling curve with a large enough effect; inconclusive = small, poorly fitted or top-dose-only effect; inactive = no such curve, though single readings can be large or run the other way; also: nearly all actives have a fitted effect of over 60% in size; overnight with compound
The depositor's hits bear a star; ? = inconclusive; & = joins results of further samples; [ ] = another dose, or the depositor's remark. % is scaled to controls: 0 for no effect and ±100 for the full control effect; potency is read from the fitted curve at half-maximal effect. Only part of the results is shown (hit frequency here may not be typical).

SMILES	2A Renilla	2A firefly
FC(F)(F)c1cc(-c2ccccc2)nc2cc(-c3ccc(Br)cc3)nn12	-3%	-12%
CCOC(=O)c1cnn(-c2cc(C)nc3c(-c4ccc(Cl)cc4)c(C(F)(F)F)nn23)c1N	-7%	-13%
O=c1oc2cc(O)ccc2cc1-c1nc(-c2ccccc2)cs1	-22%	0%
Cc1c(OCC(=O)Nc2cc(Cl)cc(Cl)c2)c(=O)ccn1CCO	-7%	195%[activator]
Cc1ccc(S(=O)(=O)Nc2ccc3oc(C)nc3c2)cc1	162%[activator]	35%[activator]
CCn1ccc2cc(S(=O)(=O)N3CCC(C(=O)NCCc4ccccc4Cl)CC3)ccc21	-3%	0%
CCOC(=O)Cn1c(=O)n(-c2ccccc2OC)c2nc(-c3cccc(F)c3)nc(C(N)=O)c21	12%	6%
N#C/C(=C\c1ccc(-c2ccc(Br)cc2)o1)C(=O)Nc1ccccc1O	-11%	-10%
COc1ccc(-c2coc3cc(OC(C)=O)ccc3c2=O)cc1	-1%	144%[activator]
S=c1[nH]c2cc3c(cc2[nH]1)OCCCO3	1%	0%
COc1ccc2nc(C)c(C(=O)N(C)CC3COc4ccccc4O3)cc2c1 (stereo not given)	0%	135%[activator]
O=C(Nc1ccc(F)cc1F)c1cc2ccc3cccnc3c2[nH]1	26%	116%[activator]
Cc1cccc(-c2nc(CS(=O)CC(=O)NCCN(Cc3ccccc3)C(C)C)c(C)o2)c1 (stereo not given)	-2%	-6%
COCCNC(=O)NC(=O)COC(=O)c1cccc2c(=O)c(C)c(-c3ccccc3)oc12	8%	23%
Cc1ccc(C)c(NC(CC(=O)c2ccccc2)C(=O)O)c1 (stereo not given)	13%	21%
COc1ccccc1-c1c(C)oc2cc(OCC#N)ccc2c1=O	-6%	11%
COC(=O)c1cc2oc3ccccc3c2n1CC(=O)Nc1ccc(C)cc1C	9%	19%
COC(=O)CC1C(=O)NCCN1S(=O)(=O)c1cccc(Br)c1 (stereo not given)	14%	11%
O=C(O)c1ccc2c(c1)N(Cc1ccc(F)cc1Cl)C(=O)c1ccccc1S2	3%	-12%
Cc1noc(Cn2c(=O)c3cc4c(cc3n(CC(=O)Nc3ccccc3F)c2=O)OCO4)n1	?	-14%
COc1ccc(Nc2nc3ccccc3nc2NS(=O)(=O)c2ccc(Cl)s2)c(OC)c1	18%	7%
CC(C)OC(=O)/C(C#N)=C/c1c[nH]c2ccccc12	43%	0%
COc1ccc(C2c3c(oc4cc(C)cc(C)c4c3=O)C(=O)N2Cc2ccco2)cc1OC (stereo not given)	-8%	-9%
Cc1ccc2c(c1)cc1c(=O)n(CC(=O)N3CCCCC3)nc(C)n12	-14%	14%
CC1CCCCN1c1nc(-c2ccc(C(C)(C)C)cc2)nc2ccccc12 (stereo not given)	0%	105%[activator]

Record cards (already shown).
S=c1[nH]c2cc3c(cc2[nH]1)OCCCO3 reads 2A Renilla: 1%; 2A firefly: 0%
CCOC(=O)c1cnn(-c2cc(C)nc3c(-c4ccc(Cl)cc4)c(C(F)(F)F)nn23)c1N reads 2A Renilla: -7%; 2A firefly: -13%
CC1CCCCN1c1nc(-c2ccc(C(C)(C)C)cc2)nc2ccccc12 (stereo not given) reads 2A Renilla: 0%; 2A firefly: 105%[activator]

An excerpt of these results, as comma-separated lines.
Molecule,2A Renilla,2A firefly
COCCNC(=O)NC(=O)COC(=O)c1cccc2c(=O)c(C)c(-c3ccccc3)oc12,8%,23%
Cc1ccc(C)c(NC(CC(=O)c2ccccc2)C(=O)O)c1 (stereo not given),13%,21%
COc1ccccc1-c1c(C)oc2cc(OCC#N)ccc2c1=O,-6%,11%
COC(=O)c1cc2oc3ccccc3c2n1CC(=O)Nc1ccc(C)cc1C,9%,19%
COC(=O)CC1C(=O)NCCN1S(=O)(=O)c1cccc(Br)c1 (stereo not given),14%,11%
O=C(O)c1ccc2c(c1)N(Cc1ccc(F)cc1Cl)C(=O)c1ccccc1S2,3%,-12%

(list continues)
SMILES	2A Renilla	2A firefly
CC(OC(=O)c1ccc(CCNS(C)(=O)=O)cc1)C(=O)N(C)C1CCCCC1 (stereo not given)	-11%	7%
C[C@@H]1ON(C)[C@H]2C[C@H]3c4[nH]c5c(-c6ccc7c(c6)OCO7)cccc5c4CCN3C[C@@H]12	-7%	23%
CCn1c(=N)n(CC(O)COc2ccccc2)c2ccccc21 (stereo not given)	-1%	-6%
O=C(NCc1ccccc1)C(=O)c1c[nH]c2ccccc12	103%[activator]	166%[activator]
CCCCCNC(=O)CCC(=O)NCCCCC	-1%	2%
CCCn1nc(C(=O)Nc2nnc(CC)s2)c2ccccc2c1=O	26%	20%
COc1cccc(/C=C(/SCC(=O)O)c2nc3ccccc3s2)c1	1%[1.06 µM]	193%[activator]
Cc1ccccc1NS(=O)(=O)c1ccc2[nH]cc(C(=O)N3CCCC3)c(=O)c2c1	8%	-18%
COc1ccc(Cl)cc1NC(=O)CSc1nccn1Cc1ccco1	12%	-15%
CCCN(Cc1nnc(-c2ccccc2Cl)o1)C(=O)c1cccc(S(=O)(=O)N(CC)CC)c1	-5%	-16%
CC(=O)c1cccc(OC(C)C(=O)C(C#N)C(=O)NC2CC2)c1 (stereo not given)	6%	9%
CCC(C)C(NC(=O)OCc1ccccc1)C(=O)O (stereo not given)	1%	22%
Cc1ccc(C)c(N2N=C(C(=O)Nc3ccccc3S(=O)(=O)N3CCCCC3)CCC2=O)c1	17%	-17%
CCOCCn1c(NCCCOC)nc2c1c(=O)[nH]c(=O)n2C	31%[activator]	83%[activator]
CC(=O)Nc1ccc(NC(=O)c2cnn(-c3ccccc3)c2C2CCN(C(=O)OC(C)(C)C)CC2)cc1	-11%	-16%
COc1ccc(N2CC(NC(=O)Nc3nc4c(C)cccc4s3)CC2=O)cc1 (stereo not given)	-3%	1%
CC1(C)CC(=O)C2=C(C1)OC(N)=C(C#N)C2c1ccc(C#N)cc1 (stereo not given)	0%	-9%
CCOc1ccc(N(CC(=O)NCc2ccc(Cl)cc2)S(=O)(=O)c2c(C)noc2C)cc1	-6%	-20%
Cc1cc(C)cc(C(N)C(=O)O)c1 (stereo not given)	-1%	3%
COc1ccc(OCCSC(C)C(N)=O)cc1 (stereo not given)	10%	117%[activator]
COCCNC(=O)COC(=O)c1cc(-c2cccc3ccccc23)nc2ccccc12	0%	-2%
Cc1ccc2nc(C)c(C(=O)N3CCCc4ccc(F)cc43)cc2c1	46%[activator]	0%
O=C(c1cc2ccc3cccnc3c2[nH]1)N1CCN(c2cccc(C(F)(F)F)c2)CC1	-12%	-18%
COc1ccc(-n2[nH]c3cc(=O)n(Cc4ccccc4)c(C)c3c2=O)cc1	2%	-1%
N#C/C(=C\c1ccco1)C(=O)NC1CCCC1	?	?
Following part.
SMILES	2A Renilla	2A firefly
COC(=O)c1cc2c(Br)cc(OC)c(OC)c2[nH]1	15%	0%
O=C(CSc1ncnc2ccccc12)Nc1ccccc1Oc1ccccc1	?	-27%
Cn1c(C(=O)NCCc2ccccc2)cc2sc(Cl)cc21	2%	96%[activator]
COc1ccc(NC(=O)c2c(NCc3cccs3)sc3c2CCCC3)c(OC)c1	-36%	-11%
Cn1c(=O)c2nc(SCC(=O)c3ccccc3)n(C)c2n(C)c1=O	8%	8%
CCOC(=O)c1[nH]c2c(c1C)C(=O)CCC2	140%[activator]	77%[activator]
Cc1nc2c(c(C)nn2-c2ccccc2)c(C)c1CCC(=O)Nc1ccc(F)cc1	-13%	-9%
CCc1noc(CSc2nc(-c3ccco3)nc3ccccc23)n1	-9%	11%
COc1ccccc1N1CCN(C(C(=O)O)c2c[nH]c3ccc(NC(=O)CCC(=O)O)cc23)CC1 (stereo not given)	9%	-2%
O=C(O)CCCN1CCOCC1	-3%	1%
Cc1cc(=O)n(Cc2ccc(F)cc2Cl)c2c1c(C)nn2-c1ccccc1	-10%	-4%
COc1ccccc1CN(Cc1cccs1)C(=O)Cc1n[nH]c(=O)c2ccccc12	-22%	16%
O=C(Cn1cc(/C=C2\NC(=O)N(Cc3ccccc3)C2=O)c2ccccc21)N1CCOCC1	-5%	-12%
N[C@@H](Cc1ccccc1)c1nnc(SCc2ccc(Cl)c(Cl)c2)o1	-2%	-7%
COC(=O)C1CN(Cc2ccccc2)CCS(=O)(=O)N1Cc1cn(Cc2ccc(C)cc2)nn1 (stereo not given)	11%	3%
CCCCC/C=N\Nc1nc(C)nc(N)n1	12%	34%
COc1cccc(NC(=O)CSCc2cc(=O)c3ccc(C)c(C)c3[nH]2)c1	4%	-9%
Cc1ccc(-c2cn3cccnc3n2)cc1NC(=O)Nc1ccc(F)cc1	-2%	25%
Cc1cc(F)ccc1NC(=O)CN(C)S(=O)(=O)c1ccc(C(=O)N2CCOCC2)s1	-2%	-11%
COc1ccccc1CNC(=O)CCCCn1c(=O)c2ccccc2n(Cc2c(C)cc(C)cc2C)c1=O	-14%	-15%
COc1cc(C(=O)OCC(=O)NC2CCC(C)CC2)cc(Cl)c1OC (stereo not given)	-20%	-23%
CCOC(=O)N1CCC(NC(=O)C(C)n2nc(C)c3sc4ccccc4c3c2=O)CC1 (stereo not given)	-12%	-10%
O=C(Cc1ccc(NC(=O)N2CCCCc3ccccc32)cc1)NCc1ccccc1	38%[activator]	33%[activator]
CCCCC(=O)Nc1ccc2oc(-c3ccncc3)nc2c1	21%	0%
CC(NC(=O)c1ccc(Br)o1)c1ccc(S(N)(=O)=O)cc1 (stereo not given)	-3%	-8%
The list goes on.
SMILES	2A Renilla	2A firefly
CCCOc1ccc(C2C(=O)N(C3CCCCC3)CC(=O)N2CCC2=CCCCC2)cc1OC (stereo not given)	-10%	6%
Cc1ccc(OCCn2c(CNc3ccccc3C)nc3ccccc32)cc1	54%[activator]	124%[activator]
CCCN(CCC)C(=O)c1nn(C)c2c1CSc1ccc(C)cc1-2	31%[activator]	-21%
CC(C)(C)C1CCc2c(sc(NC(=O)c3ccco3)c2C(=O)Nc2ccccc2Cl)C1 (stereo not given)	-1%	11%
Cc1ccc(CNC(=O)Cn2ccn(-c3ccc(F)c(F)c3)c(=O)c2=O)cc1	-7%	-18%
O=C1CCCc2c1cc(C(=O)NC1CCCCC1)c(=O)n2-c1ccc(C(F)(F)F)cc1	-11%	-11%
COc1ccc(OC)c(NC(=O)c2cn3c4c(ccc(Cl)c4c2=O)OC(C)C3)c1 (stereo not given)	-17%	-16%
CCOc1ccccc1/C=C/c1onc(C)c1S(=O)(=O)N1CCC(C(=O)N(CC)CC)CC1	130%[activator]	-13%
O=C(O)c1ccc2nc[nH]c2c1	1%	-5%
Cn1c(C(=O)NCCNC(=O)CC2CCCCC2)cc2ccccc21	0%	3%
Cn1c(=O)c2c(ncn2CC(COCc2cccc(F)c2)OCc2cccc(F)c2)n(C)c1=O (stereo not given)	-17%	-13%
CC(C)NS(=O)(=O)c1cccc(C(=O)Nc2ccc(N3CCCCC3)c3ccncc23)c1	-1%	?
CC(C)(C)C1CCc2c(sc(NC(=O)c3ccccc3F)c2C(=O)NCc2ccco2)C1 (stereo not given)	-10%	0%
COc1ccccc1Nc1cc(C)nc2nc(-c3ccccc3)nn12	52%[activator]	60%[activator]
CC(C)OC(=O)/C(C#N)=C\c1ccc(-c2cc(Cl)ccc2Cl)o1	-2%	14%
Cc1cc(C)c2oc(C(=O)Nc3ccc(S(=O)(=O)Nc4cc(C)nc(C)n4)cc3)cc(=O)c2c1	71%[activator]	3%
OCCNC(=S)Nc1cccc(F)c1	11%	-2%
Cc1cccc(CN2C(=O)c3ccccc3Sc3ccc(C(=O)N4CCCC4)cc32)c1	?	-34%
COc1ccccc1-c1cc(C(=O)Nc2cc(Cl)ccc2O)no1	5%	18%
CCc1ccc2oc(C(=O)NCCc3ccc(S(N)(=O)=O)cc3)cc(=O)c2c1	-4%	6%
CN(C)c1ccc(CNC(=O)c2ccc(Cn3c(SCc4ccccc4)nc4cccnc43)cc2)cc1	-4%	45%[activator]
CC(Oc1ccc2ccc(=O)oc2c1)C(=O)N(C(C)C)C(C)C (stereo not given)	-6%	2%
CCc1ccc(CN(C(=O)c2ccc(OC)cc2)C2CCS(=O)(=O)C2)cc1 (stereo not given)	8%	6%
COc1ccccc1-c1nnc(SCC2CCOCO2)n1-c1ccccc1 (stereo not given)	18%	14%
Cc1ccc(-n2ncc3c(NC4CCCCC4)ncnc32)cc1Cl	-2%&-6%	22%&22%
New compounds follow.
SMILES	2A Renilla	2A firefly
COc1cccc(N2C(=O)CSC23C(=O)N(Cc2ccccc2)c2ccccc23)c1 (stereo not given)	2%	-2%
CCOc1ccc(C(=O)N2CCS(=O)CC2)cc1OC	9%	0%
COc1ccc(CNC(=O)CSc2ncc3c(n2)-c2cc(Cl)ccc2N(Cc2ccccc2)S3(=O)=O)cc1OC	0%	-16%
COc1cc(/C=C(\C#N)c2nc3ccc(C)cc3[nH]2)ccc1OC(C)C	64%[activator]	209%[activator]
COC(=O)CN1CCN(c2nc3c(c(=O)[nH]c(=O)n3C)n2Cc2cccc(Cl)c2)CC1	5%	6%
Fc1cccc(CSc2ccc(-c3cccs3)nn2)c1	3%&17%	164%&110%[activator]
O=C(/C=C/c1ccc2ccccc2n1)OCC(=O)N(/N=C/c1ccccc1)c1cccc(C(F)(F)F)c1	-13%	21%
O=C(NCc1ccco1)c1ccc2c(c1)N(Cc1ccccc1)C(=O)c1ccccc1S2	26%	-11%
O=C1CC(c2ccc(C(F)(F)F)cc2)c2cnn(Cc3ccc4c(c3)OCO4)c2N1 (stereo not given)	?	?
Cc1cc(C)c(NC(=O)c2oc3c(c2C)-c2[nH]ncc2CC3)c(C)c1	-7%	0%
Cn1nc(C(=O)OCC(=O)N2CCc3ccccc32)c2ccccc2c1=O	-10%	-11%
